CDC25B CDK2 inh: human CDC25B-CDK2/CyclinA binding inhibition; HTRF CDC25B-CDK2/CyclinA binding, anti-His/anti-Flag; stronger effect = higher value; z-score (concentration not given with the values); AID 1259370; 0.72% of 94,000 active;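 also: score is relative to mean and SD of negative controls; strong numbers were not always called active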
HIV TAR-Tat: HIV-1 TAR-Tat binding disruption; HIV-1 TAR RNA, Tat peptide displacement FRET; stronger effect = higher value; 0.6% of 100,000 active; z-score (test concentration not listed);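 also: score is relative to mean and SD of negative controls; some compounds called inactive have numbers as strong as hits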
Starred values were filed as active, the others as inactive.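 The calls were made as follows: active = z-score from 3 up in half or more of its runs; inactive = the rest.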

CCOc1ccc(N2C(=O)c3cccnc3C2Nc2ccc(F)c(F)c2)cc1 (configuration not stated) was read as HIV TAR-Tat 0.07.
`CCOC(=O)c1cc(C#N)c(Sc2nnc(SC)s2)nc1C(F)(F)F` gave CDC25B CDK2 inh -2.22.
Screening COc1ccc(-c2nc(C(N)=O)c3[nH]c(=O)n(-c4ccc(F)cc4)c3n2)cc1OC returned HIV TAR-Tat 0.94.
For COc1ccc(Cc2nc(-c3cccc(C)c3)no2)cc1 the results were CDC25B CDK2 inh 1.94.
Cn1c(SCc2ccccc2F)nc(=O)c2c1NC(=O)CC2c1ccc2c(c1)OCCO2 (configuration not stated) was read as CDC25B CDK2 inh -0.59 and HIV TAR-Tat 0.46.
`Cc1nc(-c2ccc(C)c(S(=O)(=O)Nc3ccc4c(c3)OCO4)c2)cs1` gave HIV TAR-Tat -0.15.
`O=C(N1CCN(Cc2ccc3c(c2)OCO3)CC1)N1c2ccccc2Sc2ccccc21` gave CDC25B CDK2 inh -1.15.
Cc1cc(Nc2c(C)c(C)nc3ncnn23)ccc1Br was read as HIV TAR-Tat 1.25.
Screening C=CCc1c(C)nn(-c2nc(CC(=O)Nc3nc(C)cs3)cs2)c1C returned CDC25B CDK2 inh 1.27 and HIV TAR-Tat -0.53.
Cc1cc2nc(CSc3ccccc3NC(=O)COc3ccccc3)cc(=O)n2o1 was read as HIV TAR-Tat 1.42.
Screening Cn1cc(CCCC(=O)NCCN2CCOCC2)c2ccccc21 returned HIV TAR-Tat 1.68.
Screening O=[N+]([O-])c1cccc(C(O)CNCc2ccc3c(c2)OCO3)c1 (configuration not stated) returned CDC25B CDK2 inh -0.68.
`CCCCNc1ncnc2c1cnn2-c1cc(Cl)ccc1C` gave HIV TAR-Tat 1.15.
`CCCOC(=O)CSc1nc2c(cc1C#N)CCC2` gave CDC25B CDK2 inh -1.17 and HIV TAR-Tat -1.
`Cc1cc2c3c([nH]c2cc1S(=O)(=O)NCCC1=CCCCC1)CCCC3=O` gave HIV TAR-Tat 1.24.
For Cc1cc(Nc2nc3ccccc3n3nnnc23)ccc1Br the results were CDC25B CDK2 inh -1.8 and HIV TAR-Tat -1.37.
CSc1cccc(NC(=O)c2cc(S(=O)(=O)N3CCCC3)cn2C)c1 was read as HIV TAR-Tat 1.9.
Screening CCCc1nc2nc(-c3ccccc3)cc(=O)n2[nH]1 returned CDC25B CDK2 inh -0.68 and HIV TAR-Tat 2.14.
`COCCOC(=O)Cn1nnc2sc3c(c2c1=O)CCCC3` gave CDC25B CDK2 inh -2.83 and HIV TAR-Tat -1.35.
`Cc1nc2c(c(Nc3ccc(C(=O)OCC(C)C)cc3)n1)CCC2` gave CDC25B CDK2 inh -0.62 and HIV TAR-Tat -0.26.

The closing three records of the part before lead into the next:
Screening CCCc1nc2nc(-c3ccccc3)cc(=O)n2[nH]1 returned CDC25B CDK2 inh -0.68 and HIV TAR-Tat 2.14.
`COCCOC(=O)Cn1nnc2sc3c(c2c1=O)CCCC3` gave CDC25B CDK2 inh -2.83 and HIV TAR-Tat -1.35.
`Cc1nc2c(c(Nc3ccc(C(=O)OCC(C)C)cc3)n1)CCC2` gave CDC25B CDK2 inh -0.62 and HIV TAR-Tat -0.26.
`Clc1cccc(-c2noc(NC3CC3)n2)c1` gave CDC25B CDK2 inh -1.76 and HIV TAR-Tat 2.57.
`O=C(Cn1cc(S(=O)(=O)c2ccccc2)c(=O)c2cc3c(cc21)OCO3)Nc1ccc(Cl)cc1` gave CDC25B CDK2 inh -1.37 and HIV TAR-Tat -1.15.
For CNC(=O)c1cc2c(cn1)[nH]c1ccccc12 the results were CDC25B CDK2 inh -3.42.
Screening COc1ccc(N2C(=O)C3ON(c4ccccc4)C(c4ccco4)C3C2=O)cc1 (configuration not stated) returned CDC25B CDK2 inh -1.62 and HIV TAR-Tat -1.48.
`O=C(NCc1ccco1)N1CCSc2ncccc21` gave HIV TAR-Tat -0.21.
For CN(C)c1ccc(CNC(=O)CCS(=O)(=O)c2ccc3c(c2)oc(=O)n3C)cc1 the results were HIV TAR-Tat 0.25.
Screening CCN1CCN(C(=O)c2nn(C)c3c2COc2ccccc2-3)CC1 returned CDC25B CDK2 inh -0.58 and HIV TAR-Tat 2.36.
Screening O=S(=O)(c1ccc(-n2cccn2)cc1)N1CCN(C(c2ccccc2)c2ccccc2)CC1 returned HIV TAR-Tat 0.27.
For COc1cccc(C2c3c(oc4ccccc4c3=O)C(=O)N2Cc2ccc3c(c2)OCO3)c1 (configuration not stated) the results were CDC25B CDK2 inh -0.22 and HIV TAR-Tat -0.87.
`COc1ccc(Oc2coc3cc(OC(=O)c4ccccc4Cl)ccc3c2=O)cc1` gave CDC25B CDK2 inh 0.37 and HIV TAR-Tat 2.32.
COC(=O)c1ccc(-c2ccco2)n1CC(=O)NC1CCCCC1 was read as HIV TAR-Tat -2.4.
COc1ccc(-n2nc(C)c3onc(C)c3c2=O)cc1 was read as CDC25B CDK2 inh -2.61.
COc1ccccc1NC(=O)N1CCC2(CC1)Nc1cccnc1NC2=NC1CCCCC1 was read as HIV TAR-Tat -0.37.
`CC(C)NC(=O)C(=O)NCc1n[nH]c(=O)c2ccccc12` gave HIV TAR-Tat 2.16.
O=C(NC1CCCCC1)N(Cc1cccs1)c1ccc(F)cc1 was read as CDC25B CDK2 inh -1.03 and HIV TAR-Tat 1.18.
COC(=O)C1=C(C)NC(=O)NC1c1ccc(Cl)cc1 (configuration not stated) was read as CDC25B CDK2 inh -0.64.
Screening O=C(NC1CCCCC1)C1CCN(C(=O)C2CCNCC2)CC1 returned HIV TAR-Tat 0.4.
CSc1nc(N)nc(-c2cccs2)c1C#N was read as CDC25B CDK2 inh 0.4.
`COc1cc(C(=O)c2ccccc2)c(OC)cc1C(=O)NC1CC(C)(C)NC(C)(C)C1` gave CDC25B CDK2 inh -2.39.
N#Cc1cc2c(=O)n3ccccc3nc2n(-c2nccs2)c1=O was read as CDC25B CDK2 inh -0.42 and HIV TAR-Tat 0.16.
Screening CCOC(=O)N1CCN(C(=O)CCc2nc3sc4c(c3c(=O)[nH]2)CCCCC4)CC1 returned HIV TAR-Tat 1.96.
For O=C(c1cnc2cc(-c3ccccc3)nn2c1)c1cc(Br)ccc1O the results were CDC25B CDK2 inh -0.74 and HIV TAR-Tat -0.18.
For CCOC(=O)c1c[nH]c2c(OC(F)(F)F)cccc2c1=O the results were CDC25B CDK2 inh -1.5.
Screening CCC(C(=O)NCC1CCCO1)n1nc(C)n2c(cc3sccc32)c1=O (configuration not stated) returned CDC25B CDK2 inh -0.26 and HIV TAR-Tat -1.03.
For O=C(Nc1ccc2c(c1)OCCO2)c1noc2c1CCc1sccc1-2 the results were HIV TAR-Tat 0.39.
`COc1ccc(Cn2cc(C(=O)c3ccc(OC)cc3)c(=O)c3cc(OC)c(OC)cc32)cc1` gave CDC25B CDK2 inh -0.18 and HIV TAR-Tat -0.45.
`CCOC(=O)c1cc2c3c(c(N4CCOCC4)nc2s1)COC(C)(C)C3` gave CDC25B CDK2 inh -0.16 and HIV TAR-Tat 1.63.
CCCn1c(=O)n(C2CCCCC2)c(=O)c2c3c(sc21)COC(C)(C)C3 was read as CDC25B CDK2 inh -0.35 and HIV TAR-Tat 1.38.
CCOc1ccc(-c2nc(Cn3nc(C)c4c(C)onc4c3=O)c(C)o2)cc1OC was read as HIV TAR-Tat -1.05.
For O=c1[nH]c(-c2ccccc2)nc2c1Cc1c(ccc3ccccc13)O2 the results were CDC25B CDK2 inh -1.22 and HIV TAR-Tat 0.87.
`O=C(CSc1nc2ccccc2s1)OCC(=O)c1ccccc1` gave HIV TAR-Tat -1.06.
For O=C(c1ccco1)N1CCN(C2CCCCC2NS(=O)(=O)c2ccc(Cl)cc2)CC1 (configuration not stated) the results were CDC25B CDK2 inh -1.8 and HIV TAR-Tat -0.48.
For O=C(Cn1ncc2c1-c1ccccc1OC2)Nc1ccc(F)cc1Cl the results were CDC25B CDK2 inh 0.07 and HIV TAR-Tat 0.21.
Screening COc1ccc(CN2c3cccc[n+]3CC2(O)c2ccc(Cl)cc2)cc1 (configuration not stated) returned CDC25B CDK2 inh -2.21.
COc1cc(NC(=O)c2cc(C)no2)cc(OC)c1OC was read as CDC25B CDK2 inh -1.36.
COc1cc(C2Nc3cc(C)c(C)cc3NC3=C2C(=O)CC(C)(C)C3)c(OC)cc1Br (configuration not stated) was read as CDC25B CDK2 inh -0.88 and HIV TAR-Tat -4.01.
For COC(=O)C1=C(C)NC2=C(C(=O)CC(c3ccc(Cl)cc3)C2)C1c1ccc(C)cc1 (configuration not stated) the results were CDC25B CDK2 inh -0.98 and HIV TAR-Tat 3.13.
Screening CC(=O)N1c2ccc(S(=O)(=O)N3CCCCC3)cc2CC1C(=O)N1CCOCC1 (configuration not stated) returned HIV TAR-Tat 0.94.
For COc1cc(OCc2ccccc2)ccc1CN1CCN(c2ccc(C(F)(F)F)cn2)CC1 the results were CDC25B CDK2 inh -1.33.
For CC(C)Cn1cc(NC(=O)NCCCN(C)C2CCCCC2)c2ccccc2c1=O the results were CDC25B CDK2 inh 2.82 and HIV TAR-Tat 1.48.
`COc1ccccc1Cc1nnc(-c2ccc(F)cc2)o1` gave CDC25B CDK2 inh -0.78 and HIV TAR-Tat 1.07.
For COc1ccc(OC)c(C2CC(=O)C3=C(C2)NC(=O)CC3c2cccc(OC)c2OC)c1 (configuration not stated) the results were CDC25B CDK2 inh -1.52 and HIV TAR-Tat 1.03.
Screening CCC(=O)OCc1cnc(C)c2oc(=O)c(-c3nc(-c4ccccc4)no3)cc12 returned CDC25B CDK2 inh -0.34 and HIV TAR-Tat -2.26.
Screening Cc1ccc(CN2CCC(CNC(=O)Nc3ccc4c(c3)OCO4)C2)cc1 (configuration not stated) returned CDC25B CDK2 inh -3.26 and HIV TAR-Tat 1.4.
`O=c1c2ccccc2n2c(-c3ccc(O)cc3)nnc2n1CCc1ccccc1` gave CDC25B CDK2 inh -1.87 and HIV TAR-Tat 0.99.
Screening COCCCN1C(=O)c2[nH]nc(-c3ccccc3O)c2C1c1cccc(Br)c1 (configuration not stated) returned CDC25B CDK2 inh -1.11 and HIV TAR-Tat 1.39.
For c1ccc(CNCc2cccc(Oc3nnnn3-c3ccccc3)c2)cc1 the results were HIV TAR-Tat 1.08.
Screening Fc1ccc(C(NC2CCN(Cc3ccccc3)CC2)c2nnc(-c3ccccc3)o2)cc1 (configuration not stated) returned HIV TAR-Tat 0.11.
For Cc1cc(C(F)F)n2nc(C(=O)Nc3ccc(F)c(Cl)c3)nc2n1 the results were CDC25B CDK2 inh -0.36 and HIV TAR-Tat 0.17.
For CNCCCNCc1cccc(Oc2nnnn2-c2ccccc2)c1 the results were HIV TAR-Tat 0.56.
For CCn1cc(C2=NOC(C(=O)NCc3ccco3)C2)c(C)n1 (configuration not stated) the results were CDC25B CDK2 inh -0.68 and HIV TAR-Tat -0.41.
`CCOc1ccc(-n2nnnc2CNS(C)(=O)=O)cc1` gave HIV TAR-Tat 0.2.
COc1cccc(-n2cc3c(c2-c2ccccc2)c(=O)n(-c2ccccc2)n3C)c1 was read as CDC25B CDK2 inh -0.95 and HIV TAR-Tat 0.17.
`COc1ccc(Nc2nc(C)cc(=O)[nH]2)cc1Cl` gave CDC25B CDK2 inh -0.66 and HIV TAR-Tat 2.12.
For O=C(O)C1CSC(c2ccccc2)N1 (configuration not stated) the results were CDC25B CDK2 inh 0.45 and HIV TAR-Tat 0.63.
`COc1ccc(S(=O)(=O)Nc2c(-n3cnnc3)n[nH]c2C)cc1OC` gave CDC25B CDK2 inh -2.5 and HIV TAR-Tat -0.37.
`COc1ccc(-c2cc(C(F)(F)F)n3nc(N)nc3n2)cc1OC` gave CDC25B CDK2 inh -0.85 and HIV TAR-Tat 0.32.
COCc1cc(OC(C)C)nc(-c2cccc(C)c2)n1 was read as CDC25B CDK2 inh -1.28.
`Cc1ccc(-c2c(NCCc3ccc(Cl)cc3)c(=O)c2=O)cc1C` gave HIV TAR-Tat 1.09.
`CCCN1CCN(CCCN=C2NS(=O)(=O)C(c3ccc(C(C)C)cc3)=C2C)CC1` gave CDC25B CDK2 inh -0.97 and HIV TAR-Tat -0.9.

Four compounds out of the list, ordered by length of the SMILES, rising:
`O=C(CSc1nc2ccccc2s1)OCC(=O)c1ccccc1` gave HIV TAR-Tat -1.06.
For O=C(c1ccco1)N1CCN(C2CCCCC2NS(=O)(=O)c2ccc(Cl)cc2)CC1 (configuration not stated) the results were CDC25B CDK2 inh -1.8 and HIV TAR-Tat -0.48.
For COc1ccc(OC)c(C2CC(=O)C3=C(C2)NC(=O)CC3c2cccc(OC)c2OC)c1 (configuration not stated) the results were CDC25B CDK2 inh -1.52 and HIV TAR-Tat 1.03.
For COC(=O)C1=C(C)NC2=C(C(=O)CC(c3ccc(Cl)cc3)C2)C1c1ccc(C)cc1 (configuration not stated) the results were CDC25B CDK2 inh -0.98 and HIV TAR-Tat 3.13.

The list continues:
CC(c1ccccc1)n1c(-c2ccncc2)n[nH]c1=S (configuration not stated) was read as CDC25B CDK2 inh -0.17.
FC(F)(F)c1cnc(/N=C/N2CCCCC2)c(Cl)c1 was read as CDC25B CDK2 inh -1.6.
For C#Cc1cccc(NC(=S)NNC(=S)Nc2cccc(C#C)c2)c1 the results were CDC25B CDK2 inh -0.75.
Screening CC1=C(C(=O)OCC(C)C)C(c2ccc3c(c2)OCO3)C2=C(CC(c3ccccc3)CC2=O)N1 (configuration not stated) returned CDC25B CDK2 inh -0.95 and HIV TAR-Tat 2.7.
Screening Cc1ccc(-c2noc(-c3nnn(-c4ccccc4)c3C)n2)cc1 returned HIV TAR-Tat -0.05.
`COc1ccccc1-c1nnc2sc(COc3ccc(C)cc3)nn12` gave CDC25B CDK2 inh -1.83 and HIV TAR-Tat 2.48.
CCCOCCOC(=O)C1=C(C)NC2=C(C(=O)CCC2)C1c1ccc(F)c(F)c1 (configuration not stated) was read as CDC25B CDK2 inh -0.1 and HIV TAR-Tat 2.49.
Screening Cc1ccc(N2C(=O)C3CN=NC3(C)C2=O)cc1 (configuration not stated) returned CDC25B CDK2 inh 0.39 and HIV TAR-Tat 0.09.
For O=C(O)c1c(-c2ccc(F)cc2)noc1N1CCOCC1 the results were CDC25B CDK2 inh -1.51 and HIV TAR-Tat -1.26.

Screening results deposited in PubChem by Center for Chemical Genomics, University of Michigan.
